# Screening data from PubChem.
# BJeLR lethal – kills HRASV12-expressing BJeLR cells; BJeLR (HRASV12) viability, CellTiter-Glo ATP luminescence, 48 h; reference of the scale not given here; inhibition, % (no concentration beside the values); 300,000 tested, 0.17% active; AID 1554;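 active = replicate mean above 50%; inconclusive = above 50% but judged a plate artefact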;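 also: 50 nL library stock added to about 25 µL; numbers are from one replicate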
# Mtb hypoxia inh – reduces hypoxia-regulated biosensor signal in M. tuberculosis. M. tuberculosis hypoxia-regulated fluorescent reporter, fluorescence. fluorescence inhibition, % (no concentration beside the values). 300,000 tested, 0.1% active;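 active = 35 to 45% if threefold the growth effect, above 45% if 1.5-fold the growth effect; inactive = the rest, general growth blockers included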;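 also: wells of about 50 µL received 100 nL stock; 0% = vehicle wells and 100% = reference inhibitor wells; whole bacteria with a GFP reporter of the hypoxia response; strong numbers were not always called active; many hits fall short of the cut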
# PrP UTR inh – suppresses PrP 5' UTR mRNA reporter expression; cell-based PrP 5' UTR mRNA reporter, plate reader; inhibition, % (concentration not given with the values); 340,000 tested, 0.35% active; AID 488862;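 active = every replicate at 50% or more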;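 also: 0 = median of the neutral control wells; tested in H4 reporter cells; numbers are from one replicate; inactives centre near -14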
# RN4220 kill – S. aureus RN4220 growth inhibition | AID 1259311 | inhibition, % (concentration not given with the values) | OD600, 16 h | 330,000 tested, 0.33% active;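 active = z-score of -3 or lower and OD600 up to 0.18 on both plates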;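 also: plate controls were untreated cells for no effect and reference antibiotic for full effect; stock transfer was 100 nL into about 80 µL; one replicate is shown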
# Autofluor counter – flagged as autofluorescent in microsphere protease counterscreen. compound autofluorescence counterscreen, microsphere flow cytometry; stronger effect = higher value. fluorescence intensity (no concentration beside the values). 360,000 tested, 3.1% active. AID 624483;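 active = at least 3 SD above the mean of all compounds, about 16000 in these data; inconclusive = too few beads counted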;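 also: 100 nL of 1 mM stock went into each well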
# Sa ugtP lethal – compounds lethal to S. aureus RN4220 ugtP deletion mutant; OD600 growth, 16 h; some inactives read as strong as hits; growth inhibition, % (concentration not given with the values); 330,000 tested, 0.54% active;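 active = z-score under -3 and OD600 up to 0.15 on both plates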;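 also: plate controls were untreated wells for no effect and antibiotic for full effect; wells of about 80 µL received 100 nL stock; the first replicate is given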
# Mtb hypoxia inh growth – further read-out of Mtb hypoxia inh, marked with its call; growth inhibition, %; measured here: M. tuberculosis growth (absorbance);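 0% = vehicle and 100% = reference antibiotic; read after six days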
# An asterisk follows results filed as active; ? = inconclusive; nt = no result given.
compound,BJeLR lethal,Mtb hypoxia inh,Mtb hypoxia inh growth,PrP UTR inh,RN4220 kill,Autofluor counter,Sa ugtP lethal
CN(C)C(=NOC(=O)c1ccccc1)c1nonc1N,nt,7,-1,nt,2.8,nt,1
Cc1[nH]c2ccc(C(=O)NCCCN3CCOCC3)cc2c1C,-2,1,8,-7,-0.8,4951,0
Cc1ccc(Cn2cccc(NC(=O)c3ccco3)c2=O)cc1,-8,nt,nt,-44,3.1,5055,8
CC(C)Cn1c(C(C)C)nc([N+](=O)[O-])c1S(=O)(=O)c1ccc(F)cc1,0,8,12,-26,8.9,5518,6
CCN(CC)CCNC(=O)c1c(O)c2cccc3c2n(c1=O)CCC3,-3,8,9,-21,13,3171,4
S=c1[nH]nc(-c2ccccc2)n1N=Cc1cccc(Cl)c1,nt,13,8,nt,18,nt,1
CN(Cc1cccnc1)Cc1cn(C)nc1-c1cccc(Cl)c1,-1,10,5,-16,5.2,4428,5
Cc1cc(C)n2nc(SCC(=O)Nc3ccccc3F)nc2n1,nt,-6,3,3,0.5,3982,1
COCCCn1c(SCCc2ccccc2)nc2cc(OC)c(OC)cc2c1=N,-8,-6,0,-12,4.4,4513,-11
COc1ccc(-n2c(C)nn(C)c2=O)cc1,-2,-1,-4,13,2.1,15801,9
CSc1nc(C)cc(SCC(=O)Nc2ccc(Cl)cc2Cl)n1,13,12,12,-12,1.9,4129,-3
COc1ccc(/C=N/NC(=S)Nc2c(C)n(C)n(-c3ccccc3)c2=O)cc1OC,-10,nt,nt,-12,nt,4354,nt
Clc1ccc(OCc2cnc(Cl)s2)cc1,5,nt,nt,-13,11,2399,17
CCCCOc1ccc(C=c2sc3ncnn3c2=O)cc1,nt,5,4,nt,1.9,nt,0
CCSc1nnc(NC(=O)CC)s1,-3,5,2,-10,5.0,4366,5
O=C1CN(C(=O)CSc2nc3ccccc3n2CCc2ccccc2)c2ccccc2N1,4,5,3,-9,2.7,2453,1
Cc1nn(C)cc1CNC(=O)c1ccccc1Br,11,-6,8,-6,1.1,16520*,-6
Cc1ccc(S(=O)(=O)CC(=O)N(C)C)cc1,-3,nt,nt,-7,3.8,3586,2
CCCN(C(=O)c1cccs1)c1c(N)n(Cc2ccccc2)c(=O)[nH]c1=O,nt,4,-3,-7,1.8,3506,-4
O=C(Nc1ccccc1-c1nnn(CC(=O)N2CCOCC2)n1)c1ccc(F)cc1,1,-6,-21,-10,-2.1,2000,0
COC(=O)CCN1CCN(S(=O)(=O)c2cccc(Br)c2)CC1,-10,8,-3,0,3.2,4002,1
COC(=O)c1cc2occc2n1Cc1nc(-c2ccc(Cl)cc2)oc1C,-8,6,7,14,-2.0,5651,16
O=C(CSc1ccccc1F)NC(=O)c1ccccc1Br,nt,-3,5,-22,2.8,3845,0
CCCCN(C)CCCNC(=O)CN1C(=O)CSc2ccc(S(=O)(=O)N3CCOCC3)cc21,-3,-1,-11,-6,2.6,1956,16
O=C(Nc1cccc(C(F)(F)F)c1)C(Sc1ncnc2ccccc12)c1ccccc1 (stereo not given),0,13,2,-41,-0.6,4750,-7
CCN(CC)C(=O)c1cc(-c2ccc3c(c2)OCO3)on1,0,-2,-3,-44,3.5,2721,-3
CCN(CC)CCOc1nnc(-c2ccc(OC)cc2)c2ccccc12,4,-8,-7,-14,0.3,2907,16
Clc1ccsc1-c1csc(-c2cccnc2)n1,5,nt,nt,-82,1.3,2241,2
Oc1ccc(N=Cc2sc3ccccc3c2Cl)cc1,-3,6,5,-21,13,10575,4
CC(C)CN1CCC(=O)N(CCOc2ccccc2)CC1,-7,5,-1,-15,3.8,3101,-3
CC1CC(C)CN(c2oc(-c3ccco3)nc2C#N)C1 (stereo not given),17,1,0,-19,1.4,10528,-15
CCN(C(=O)COC(=O)CNC(=O)c1sc2ccccc2c1Cl)C1CCCCC1,6,-1,8,-11,-1.1,6591,4
CCCc1cc(=O)[nH]c(SCC(=O)c2cc(C)n(CCC)c2C)n1,1,nt,nt,-19,8.9,2630,7
COc1ccc(NC(=O)c2ccc3ccccc3n2)cc1S(=O)(=O)Nc1ccccc1Cl,-2,-1,7,6,1.9,2285,-7
Cc1ccc(NCC(=O)NN=Cc2cc(O)ccc2[N+](=O)[O-])cc1,nt,-3,-1,nt,2.7,nt,2
CCCCn1c(=N)n(CCOc2ccc(C)cc2)c2ccccc21,9,1,11,-3,1.2,2059,-30
O=C(NN=C/C=C/c1ccco1)c1cccs1,nt,9,13,nt,1.6,nt,-3
O=C(CSc1nnnn1C1CCCCC1)N1CCc2ccccc21,-1,2,13,-31,-1.2,8940,-7
CC1=CC(C)C(COC(=O)CN2CCCCC2)C(C)C1 (stereo not given),9,17,10,-20,5.5,6144,4
COCCNC(=O)C(=O)Nc1cccc(Br)c1,7,12,7,-53,3.1,8166,5
CN1CCc2nc3sc(C(=O)NCc4ccccc4)c(N)c3cc2C1,2,19,14,-22,7.9,1404,9
CC(=O)c1ccc(N2CCN(C(=O)c3nn(C)c4c3CS(=O)(=O)c3ccccc3-4)CC2)cc1,1,8,17,-7,5.8,5722,6
CS(=O)(=O)c1cccc(C(=O)OCCCC(=O)c2ccccc2)c1,nt,7,6,-8,4.8,nt,6
O=C(CNC(=O)c1ccccc1F)OCC(=O)c1ccc(Cl)s1,-1,-1,-4,-14,0.4,6302,5
CCn1c(-c2sc(-c3ccccc3)nc2C)n[nH]c1=S,1,6,5,-13,1.4,4034,-5
COc1cccc(CNc2ncn[nH]2)c1OCc1ccc(F)cc1,-10,-3,3,-15,-3.3,4555,-3
Cc1nnc(SC(C)C(=O)NCC2CCCO2)s1 (stereo not given),nt,-4,1,4,1.2,3837,0
CCn1c(SCC(=O)Nc2ccccc2)nnc1C1CCCCC1,4,nt,nt,-6,3.4,2545,5
O=C1C(C=NCc2ccco2)=C(O)c2ccccc21,5,13,3,-65,-9.2,2315,3
O=C(Nc1cccc(NC(=O)c2ccccc2[N+](=O)[O-])n1)c1ccccc1[N+](=O)[O-],8,nt,nt,-27,-4.7,5008,-5
COC(=O)c1cnn(-c2nc(-c3ccccc3)cs2)c1N,-8,21,8,-42,2.6,2955,-6
Cc1ccc(OCC(=O)NC(=S)Nc2cccc(NC(=O)c3ccccc3)c2)cc1,-8,nt,nt,-13,nt,7615,nt
CCc1nnc(NC(=O)c2ccc3c(c2)C(=O)N(CC(C)C)C3=O)s1,3,5,9,nt,-0.7,nt,0
CC(C)N(C(=S)Nc1cc(S(=O)(=O)N2CCOCC2)ccc1Cl)c1ccccc1,-8,15,-2,-18,2.4,2700,12
Cc1csc(NC(=O)c2cn3ccccc3n2)n1,13,1,3,76*,1.8,4648,10
CC(=O)NS(=O)(=O)c1ccc(N=c2ssc3c2-c2cc(C)c(C)cc2NC3(C)C)cc1,6,4,2,-10,36,2643,10
CN(C)C(CNC(=O)CNC(=O)c1ccc2ccccc2c1)c1ccccc1 (stereo not given),-2,9,5,-13,6.3,4688,16
C/C(=N\NC(=O)CSCc1ccc([N+](=O)[O-])cc1)c1ccccc1O,5,nt,nt,-21,nt,2130,nt
C=CCOc1ccc(CNc2ccc3[nH]c(=O)[nH]c3c2)cc1,-18,10,1,-29,2.8,4281,4
COc1c(C(=O)Nc2c(C)n(C)n(-c3ccccc3)c2=O)ccc2ccccc12,1,3,0,-16,7.2,3280,8

# Remaining list, next part:
compound,BJeLR lethal,Mtb hypoxia inh,Mtb hypoxia inh growth,PrP UTR inh,RN4220 kill,Autofluor counter,Sa ugtP lethal
Cc1ccc(-c2nc3ccccc3c(=O)n2N)cc1,2,-1,0,-25,3.2,3656,4
O=[N+]([O-])c1cn(-c2nc(-c3ccco3)cc(C(F)(F)F)n2)cn1,2,1,0,-52,3.0,9679,3
CCN(CC(=O)Nc1ccc(NC(C)=O)cc1)C(=O)c1cccc(S(=O)(=O)N2CCCC2)c1,2,-1,-6,-15,0.2,5984,2
O=C1CCCCC1(c1ccccc1)c1ccccc1,nt,8,23,-15,6.8,3404,1
O=C(COC(=O)Cc1c[nH]c2ccccc12)NC1CCS(=O)(=O)C1 (stereo not given),-10,0,-8,-14,-0.1,6014,5
O=C(COC(=O)c1ccc(Cl)nc1)NC(=O)c1ccc(OC(F)F)cc1,0,7,8,-7,0.3,5280,-3
CC(C(=O)N1CCN(C(=O)c2ccco2)CC1)n1sc2ccccc2c1=O (stereo not given),-3,-3,-1,4,1.8,4219,1
CC(C)c1ccc(CC(NC(=O)c2ccccc2)C(=O)NCC(=O)O)cc1 (stereo not given),1,-16,-11,-8,-3.8,3574,-3
CCCOc1ccc(/C(O)=C2/C(=O)C(=O)N(CCCOC)C2c2ccncc2)cc1 (stereo not given),12,13,8,-11,-12,3071,-4
O=C(CCN1CCCCC1)Nc1cccc(Cl)c1,4,nt,nt,-13,1.6,2795,-11
CCOc1ccc(S(=O)(=O)N(CC(=O)NN=Cc2cccs2)c2ccc(C)cc2)cc1,nt,0,9,nt,0.0,nt,-6
C=CCNC1=C(Cl)C(=O)N(c2cccc(Cl)c2Cl)C1=O,1,nt,nt,-11,-3.1,2328,-4
Cc1nn(Cc2ccccc2)c(Cl)c1/C=C/C(=O)OC(C(=O)NC(N)=O)C(C)C (stereo not given),0,-1,5,-17,2.2,3342,8
Cc1ccc(C(=O)Nc2ccc(S(=O)(=O)NCc3ccco3)cc2)cc1,-12,1,-2,-31,0.6,21876*,-4
CC(=O)Nc1cccc(NC(=O)CSc2nc3ccccc3o2)c1,-6,5,-1,-16,4.9,2669,0
COCCCNC(=O)CN(Cc1ccccc1)S(=O)(=O)c1ccccc1,-15,10,0,-22,3.9,4385,2
Cc1cc(C)nc(N2C(=O)CC(Cc3ccccc3)C2=O)n1 (stereo not given),10,3,-2,-21,1.3,?,13
CCCCCCC[C@@H](C/C=C/CCC(=O)O)OC,nt,-5,3,-20,7.4,3462,7
COC(=O)c1cc(C#N)c(Oc2ccc(OC)cc2)nc1C,-6,nt,nt,-27,4.7,5394,-6
Cc1[nH]nc2c1C(c1cnn(C)c1)C(C#N)=C(N)O2 (stereo not given),-17,15,-4,-19,5.2,3351,6
O=Cc1cn(CCC(=O)O)nc1-c1cccc2ccccc12,1,4,7,-27,3.0,5254,-5
O=[N+]([O-])c1cccc(-n2nnnc2CN2CCCCCC2)c1,0,8,6,-31,4.5,4181,-3
CCc1ccc(-c2csc(NC(=O)C3=COCCO3)n2)cc1,nt,3,4,-74,0.2,3830,8
COc1ccc(-n2c(SCC(=O)Nc3nccs3)nnc2-c2ccoc2C)cc1,-16,nt,nt,-28,6.8,4214,9
CC(=O)Nc1c(C(=O)O)[nH]c2ccccc12,2,7,-11,-12,4.0,2884,-10
Oc1c(C(Nc2nc3ccccc3s2)c2ccco2)ccc2cccnc12 (stereo not given),-4,10,3,3,23,5601,-14
COC(=O)c1ccc(NS(=O)(=O)c2ccc3c(c2)n(C)c(=O)n3C)cc1,1,18,10,-14,6.9,4020,6
COc1ccc(C(=O)Nc2nncs2)cc1S(=O)(=O)N1CC(c2ccccc2)CC1=O (stereo not given),-1,nt,nt,-14,0.7,6201,3
CCCCc1ccc(-c2csc(/C(C#N)=C\c3ccco3)n2)cc1,-15,-3,-4,-45,-3.9,2232,21
C=CCOc1ccccc1C=c1sc2nc(-c3oc4ccccc4c3C)nn2c1=O,nt,10,8,nt,2.3,nt,4

# Profiles, quoted from the list:
# Entry for Oc1c(C(Nc2nc3ccccc3s2)c2ccco2)ccc2cccnc12 (stereo not given) = BJeLR lethal = -4; Mtb hypoxia inh = 10; Mtb hypoxia inh growth = 3; PrP UTR inh = 3; RN4220 kill = 23; Autofluor counter = 5601; Sa ugtP lethal = -14
# Entry for CCCCc1ccc(-c2csc(/C(C#N)=C\c3ccco3)n2)cc1 = BJeLR lethal = -15; Mtb hypoxia inh = -3; Mtb hypoxia inh growth = -4; PrP UTR inh = -45; RN4220 kill = -3.9; Autofluor counter = 2232; Sa ugtP lethal = 21

# Random draw from the library; overall some 4.1% were active at least once.
